GIV Gai3 FP – inhibitors of GIV peptide binding to Galpha-i3, primary screen, biochemical, fluorescence polarization, FITC-GIV GBA peptide, rat Galphai3; Guanine nucleotide-binding protein G(i) subunit alpha-3 (Rattus norvegicus), P08753; 90 min; hits give low values; scaled: aluminum fluoride 0%, vehicle 100%; percent of control (FP), % (test concentration not listed); actives 0.42% (n = 210,000);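 active means replicate mean at 85% of control or lower, very high polarization wells dropped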;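 further: wells of about 15 µL received 100 nL stock; the first replicate is given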
Target sequence (P08753 whole entry, looked up): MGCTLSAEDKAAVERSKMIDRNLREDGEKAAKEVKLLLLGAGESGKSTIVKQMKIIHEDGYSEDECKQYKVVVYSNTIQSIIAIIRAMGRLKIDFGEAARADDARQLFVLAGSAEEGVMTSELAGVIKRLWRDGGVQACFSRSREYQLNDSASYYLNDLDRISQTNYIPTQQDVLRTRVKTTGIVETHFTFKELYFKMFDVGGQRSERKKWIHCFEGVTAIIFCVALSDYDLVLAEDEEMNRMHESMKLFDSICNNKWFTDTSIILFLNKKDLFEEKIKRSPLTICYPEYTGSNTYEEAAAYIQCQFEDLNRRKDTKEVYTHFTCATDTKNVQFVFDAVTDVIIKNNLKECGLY
Numbers without * were called inactive.

| structure | GIV Gai3 FP |
| --- | --- |
| COC(=O)C1=C(C)NC(=O)CC1c1ccccc1Cl (stereo not drawn) | 108 |
| CCOc1ccc(-n2c(N)c(C(=O)Nc3ccccc3C)sc2=S)cc1 | 120 |
| Cc1cccc(N2CCN(S(=O)(=O)c3cc(-c4cc(C(F)(F)F)on4)cs3)CC2)c1C | 106 |
| CN(CCc1noc(-c2ccc(C(=O)N3CCOCC3)cc2)n1)C(=O)NCC1CCCO1 (stereo not drawn) | 105 |
| Nc1nc(Cn2nnc(-c3ccccc3F)n2)nc(N2CCOCC2)n1 | 101 |
| Cc1nnc2ccc(-n3ncc4c3NC(=O)CC4c3ccc(OCCc4ccccc4)cc3)nn12 (stereo not drawn) | 97 |
| Cc1nn(-c2ccc3nnc(C)n3n2)c2c1C(c1cc(F)cc(F)c1)CC(=O)N2 (stereo not drawn) | 97 |
| Cc1ccc2nc(-c3ccccc3NC(=O)COc3ccccc3)ccc2c1 | 104 |
| CCN(Cc1ccc(Cl)cc1)Cc1cc(=O)n2nc(C)sc2n1 | 107 |
| CCN1CCC(CCNC(=O)C2CCc3sc(C(=O)N4CCCC4)cc3C2)CC1 (stereo not drawn) | 104 |
| COc1cccc(-n2cc(C(=O)NCCC(=O)Nc3nnc(C)s3)c3ccccc3c2=O)c1 | 104 |
| CCCc1cc(C2CCCN2Cc2ccc(F)c(F)c2)no1 (stereo not drawn) | 104 |
| CCc1ccc(N2C(=O)c3sc4nnc(C)c(=O)n4c3C2=O)cc1 | 111 |
| Cc1ccc(-n2[nH]c(C)c(C=Nc3ccc([N+](=O)[O-])c([N+](=O)[O-])c3)c2=O)cc1C | 118 |
| Cc1n[nH]c(=O)c2cc(S(=O)(=O)N3CCCCC3)cn12 | 99 |
| Cc1nn(CC(=O)N2CCCC2)c(C)c1S(=O)(=O)N1CCCC(C(=O)N2CCCCC2)C1 (stereo not drawn) | 104 |
| COc1cc(/C=C2/C(=N)N3C(c4ccccc4)=CSC3=NC2=O)ccc1OCc1ccccc1 | 102 |
| O=C(Cc1c(Sc2ccccc2)[nH]c2ccccc12)N1CCN(c2ccccn2)CC1 | 101 |
| CN(C)C(=O)c1cc2sc(Cl)cc2n1C | 104 |
| COc1cc(-c2nc3cnc(Br)cn3c2Nc2ccc3c(c2)OCO3)ccc1O | 102 |
| Cc1sc(-c2nc(-c3ccccc3)no2)cc1S(=O)(=O)N(C)Cc1ccccc1 | 106 |
| CCC1(C(=O)c2ccc(C)cc2)C(c2ccccc2)C1(C(=O)OC)C(=O)OC (stereo not drawn) | 111 |
| COC(=O)C1=C(C)NC(=O)CC1c1ccc(Cl)c(Cl)c1 (stereo not drawn) | 105 |
| CC(=O)N1C(=O)C2(C(C#N)=C(N)Oc3n[nH]c(-c4ccc(F)cc4)c32)c2ccccc21 (stereo not drawn) | 107 |
| COc1cccc(C2CC(c3cccs3)=NN2C(=O)CSc2nnc(CNC(=O)c3cccs3)n2C)c1OC (stereo not drawn) | 105 |
| CCOc1ccc(C2C(N3C(=O)c4ccc([N+](=O)[O-])cc4C3=O)C(=O)N2c2ccc(OCC)cc2)cc1 (stereo not drawn) | 113 |
| O=C(O)CC(NS(=O)(=O)c1cccc2nsnc12)c1ccco1 (stereo not drawn) | 111 |
| CC(=O)N1CCCc2ccccc21 | 121 |
| Clc1ccc2c(c1)C(c1ccccc1Cl)=Nc1ccc(Cl)cc1C(c1ccccc1Cl)=N2 | 116 |
| CC(=O)N1CCc2cc(Br)c(S(=O)(=O)NCCN3CCC(Cc4ccccc4)CC3)cc21 | 119 |

(further entries)
| structure | GIV Gai3 FP |
| --- | --- |
| OC(CN1C2=NCCN2c2ccccc21)c1ccc(Br)cc1 (stereo not drawn) | 100 |
| CCC(C(=O)Nc1c2c(nn1-c1ccc(Cl)cc1)CSC2)c1ccccc1 (stereo not drawn) | 99 |
| O=C(NCc1ccc2c(c1)OCO2)c1cccnc1SCc1ccccc1Cl | 104 |
| Cc1ccc(Sc2cc(Sc3ccc(C)cc3)c3noc4c3c2C(=O)c2ccccc2-4)cc1 | 103 |
| Cc1ccc2nsnc2c1S(=O)(=O)N1CCN(C(c2ccccc2)c2ccccc2)CC1 | 107 |
| O=C1CCCc2c1cnc1c(C(=O)NCc3cccc(Cl)c3)cnn21 | 99 |
| O=C(C1CCCC1)N1CCN(c2ncnc3c2nnn3-c2ccccc2)CC1 | 94 |
| COc1cc(C2C(C(=O)OCC3CCCO3)=C(C)NC3=C2C(=O)CC(c2cccs2)C3)ccc1O (stereo not drawn) | 101 |
| CCOc1ccccc1NC(=O)c1ccc(F)c(S(=O)(=O)N2CCN(c3ccccc3OC)CC2)c1 | 106 |
| CC(C)Nc1nc(-c2nnc(-c3ccccc3)o2)nc2ccccc12 | 103 |
| Cc1cc(-c2c(C)sc(C)c2S(=O)(=O)NCC(C)c2ccccc2)n[nH]1 (stereo not drawn) | 98 |
| CCN(CC)CCNC(=O)c1c(-c2cccc(Br)c2)noc1C | 108 |
| COc1cccc(CNC(=O)N2CSC[C@@H]2C(=O)NCc2csc(C)n2)c1 | 101 |
| CCOC(=O)c1c(C)oc2ccc(N(C(C)=O)S(=O)(=O)c3ccc4ccccc4c3)cc12 | 106 |
| Cc1[nH]n(-c2ccccc2)c(=O)c1C(=O)c1cccc(Br)c1 | 106 |
| Cc1cc2c(cc1S(=O)(=O)N(C)CC(=O)NCc1ccccc1)OCC(=O)N2 | 105 |
| Cc1ccc(C)c(NC(=O)N2CCN(Cc3cc(=O)n4nc(-c5ccc(F)cc5)sc4n3)CC2)c1 | 99 |
| COc1ccc(Nc2c(C(=O)N3CC(=O)Nc4ccccc43)cc([N+](=O)[O-])c(Nc3ccc(OC)cc3)c2[N+](=O)[O-])cc1 | 112 |
| COc1ccc(Nc2ncnc3c2cnn3-c2ccc(Cl)cc2)cc1Cl | 106 |
| CCOC(=O)CC1(NC(=O)N2CCCN(c3nc4cccnc4s3)CC2)CCCCC1 | 106 |
| Cc1cc(C)c(S(=O)(=O)Nc2cc3c4c(oc3c3ccccc23)CCCC4=O)c(C)c1 | 109 |
| CCOc1ccc(-c2ccc(OCCNC(=O)c3sc(-c4ccccc4)nc3C)nn2)cc1 | 97 |
| N#Cc1c(C(F)(F)F)cc(-c2ccco2)nc1SCCN1CCOCC1 | 101 |
| Cc1nn2c(S(=O)(=O)N3CCCCC3)c(C(C)C)nc2s1 | 99 |
| CC(Sc1sc(=S)sc1SC(C)C(=O)O)C(=O)O (stereo not drawn) | 95 |
| CCOCCn1cnc2sc(C(=O)NC3CCCC(C)C3C)c(C)c2c1=O (stereo not drawn) | 111 |
| Cc1ccc(S(=O)(=O)Nn2c(SCC(=O)Nc3nccs3)nc3ccccc3c2=O)cc1 | 102 |
| CC1(C)OC2OC(CO)C3OC(C)(C)OC3C2O1 (stereo not drawn) | 110 |
| CN1C(=O)N(C)C2(c3ccccc3)NC(=S)NNC12c1ccccc1 (stereo not drawn) | 104 |
| O=C(Nc1cc(F)c2[nH]c(=O)ccc2c1)c1ccc(F)cc1 | 105 |

In the list so far, 5 contain bromine.
| structure | GIV Gai3 FP |
| --- | --- |
| COc1cc(-c2nc3cnc(Br)cn3c2Nc2ccc3c(c2)OCO3)ccc1O | 102 |
| CC(=O)N1CCc2cc(Br)c(S(=O)(=O)NCCN3CCC(Cc4ccccc4)CC3)cc21 | 119 |
| OC(CN1C2=NCCN2c2ccccc21)c1ccc(Br)cc1 (stereo not drawn) | 100 |
| CCN(CC)CCNC(=O)c1c(-c2cccc(Br)c2)noc1C | 108 |
| Cc1[nH]n(-c2ccccc2)c(=O)c1C(=O)c1cccc(Br)c1 | 106 |

Next records.
| structure | GIV Gai3 FP |
| --- | --- |
| O=C(CCCCCn1c(=S)[nH]c2ccc(Br)cc2c1=O)N1CCN(C(=O)c2ccco2)CC1 | 103 |
| Nc1nonc1-n1nnc(C(=O)N/N=C/c2cc(Br)cs2)c1-c1ccccc1 | 107 |
| Cc1ccc(-n2nc3c(c2NC(=O)c2c(-c4ccccc4Cl)noc2C)CS(=O)(=O)C3)cc1 | 105 |
| CCc1ccc(Nc2ncnc3c2cnn3-c2ccc(OC)cc2)cc1 | 107 |
| COc1cc(-c2nc(-c3ccc(-c4csc(C5CC5)n4)cc3)no2)cc(OC)c1OC | 108 |
| O=C(NCCC1=CCCCC1)c1cccc(Nc2ncc(-c3ccc(F)cc3)cn2)c1 | 107 |
| COc1ccc(NC(=O)CSc2nc3ccc(Nc4nc(N5CCOCC5)nc(N5CCOCC5)n4)cc3s2)cc1 | 111 |
| CC(C)N1CCN(S(=O)(=O)c2ccc(-c3nnc(C4CCCC4)o3)o2)CC1 | 107 |
| O=S(=O)(c1ccc(F)c(F)c1)N1CCc2nc(-c3ccc(F)cc3)ncc2C1 | 100 |
| O=C(Nc1nccs1)C1CCCN(S(=O)(=O)c2cc(-c3noc(C4CCC4)n3)cs2)C1 (stereo not drawn) | 106 |
| O=[N+]([O-])c1cccc(-c2nc(-c3ccc(Br)cc3)c(-c3ccc(Br)cc3)[nH]2)c1 | 106 |
| O=C(NC1CC1)c1ccc2c(c1)nc1n2CCCC1 | 105 |
| O=C(Nc1c2c(nn1-c1ccc(Cl)cc1)CS(=O)(=O)C2)c1ccc(C(=O)c2ccccc2)cc1 | 105 |
| CCOC(=O)c1c(CSc2nc(C)ccc2C#N)n(C)c2cc(Br)c(OC(C)=O)cc12 | 105 |
| COc1ccc(Cl)cc1S(=O)(=O)N1CCC(n2cnc3cc(F)ccc3c2=O)CC1 | 104 |
| O=C(NCc1ccc(F)cc1)c1cccc(-c2cc(NC3CCCCC3)ncn2)c1 | 108 |
| Cc1ccc(-c2[nH]ncc2CN2CCCC2c2cc(C)on2)cc1 (stereo not drawn) | 106 |
| C=CCOc1ccc2c(c1)C(=NO)c1cc(OCC=C)ccc1-2 | 106 |
| Cc1cc2c(cc1C)N(C(=O)Nc1ccccc1)C(C)(C)CC2C (stereo not drawn) | 107 |
| COc1ccc(OC)c(NC(=O)CSc2nc3nc(C)cc(C)n3n2)c1 | 105 |
| CCOC(=O)c1oc2nc(C)c3c(c2c1N)CC(C)(C)OC3 | 109 |
| CCCCCn1c(SCc2cc(F)ccc2F)nc2cc(C(=O)N3CCC(C(N)=O)CC3)ccc2c1=O | 111 |
| Cc1cccc(-c2nc3ccc(C(=O)NCCN4CCOCC4)cc3nc2-c2cccc(C)c2)c1 | 108 |
| O=c1/c(=C/c2cn(-c3ccccc3)nc2-c2ccc(Cl)cc2)sc2nc3ccccc3n12 | 99 |
| Cn1nccc1C(=O)N1CCC(Oc2cc(N3CCCC3)ncn2)C1 (stereo not drawn) | 103 |
| CCc1cccc(C)c1Nc1c(-c2ccccc2O)nc2cnc(Br)cn12 | 157 |
| COc1cccc(C2CC(=O)Nc3c2cnn3-c2nc3ccccc3s2)c1OC1CCCC1 (stereo not drawn) | 100 |
| CC(C)c1cc(C2CCCN2Cc2ccccc2O)on1 (stereo not drawn) | 107 |
| O=C(CCc1nc(CSc2nc3ccccc3s2)no1)Nc1cc(F)cc(F)c1 | 105 |
| CCn1c(=O)n(CC(=O)Nc2nc3c(C)cccc3s2)c(=O)c2ccccc21 | 113 |

Next part:
| structure | GIV Gai3 FP |
| --- | --- |
| CC(c1nnc(SCC(=O)Nc2ccc3c(c2)OCCO3)n1C)N1C(=O)COc2ccccc21 (stereo not drawn) | 101 |
| CC1(C)CC(=O)c2cc(C(=O)NCCc3ccccc3)c(=O)n(-c3ccccc3)c2C1 | 111 |
| COc1ccc(CN2CCCC2c2c(C)noc2C)cc1CN1CCOCC1 (stereo not drawn) | 101 |
| COc1cccc(C2CC(=O)Nc3c2ccc2ccccc32)c1OC (stereo not drawn) | 113 |
| COc1ccc(N2C(=O)C3C4c5ccccc5C(c5ccccc54)C3(C)C2=O)cc1 (stereo not drawn) | 98 |
| COc1ccccc1N1CCN(c2ncnc3sc(C(=O)N4CCOCC4)c(C)c23)CC1 | 103 |
| Cc1ccc(-c2noc(Cn3c(=O)n(CCc4ccccc4)c(=O)c4sccc43)n2)cc1 | 100 |
| c1cc(-c2noc(-c3n[nH]c4c3CCCC4)n2)ccc1-c1csc(C2CC2)n1 | 100 |
| CCOC(=O)c1sc2ncnc(Nc3ccc(C)cc3Br)c2c1C | 105 |
| Cc1nc(-c2csc(S(=O)(=O)NCc3ccc(Cl)cc3)c2)sc1C | 97 |
| CN(C)c1nc2ncn3c(=O)n(CC(=O)NC4CCCCC4)nc3c2s1 | 105 |
| CSc1ccc(C2Nc3c(C)cc(C)cc3[C@H]3OCCC[C@@H]23)cc1 (stereo partly drawn) | 101 |
| COCc1cc(C)nc2sc(-c3nc4cc([N+](=O)[O-])c([N+](=O)[O-])cc4[nH]3)c(N)c12 | 106 |
| O=C(C1CCN(c2ncnc3c2oc2ccccc23)CC1)N1CCN(c2cccc(Cl)c2)CC1 | 108 |
| CCCCCn1c(SCc2ccc(C)cc2)nc2cc(C(=O)N3CCC(C(N)=O)CC3)ccc2c1=O | 118 |
| Cc1ccc(Cl)cc1NC1=NC(=S)N(CCN2CCOCC2)C12CCCCC2 | 105 |
| Cc1ccc(C(=O)Nc2ccc(-c3noc(-c4ccco4)n3)cc2)cc1[N+](=O)[O-] | 125 |
| CCOc1ccc2c(c1)C(=O)c1cc(OCC(=O)OC)ccc1-2 | 128 |
| O=C(NCCCN1CCOCC1)C1CCN(c2ncc(-c3ccccc3)cn2)CC1 | 112 |
| COc1ccc(C2=N/C(=C/c3ccccc3C(F)(F)F)C(=O)O2)cc1Br | 121 |
| CC(=O)Nc1ccc(Cc2nc(-c3cccc(-c4csc(C)n4)c3)no2)cc1 | 107 |
| Cc1ccc(-c2noc(-c3ccc(=O)n(CC(=O)Nc4cccc(Br)c4)c3)n2)cc1 | 104 |
| COc1cc(/C=C2/N=C(c3ccc(C)cc3)OC2=O)cc(Br)c1OC(C)=O | 112 |
| CCN(CC)c1ccc(C(=O)N2CCN(c3cc(=O)n(C)c(=O)n3C)CC2)cc1 | 101 |
| Cc1c(C(=O)N2CCC(C)CC2)sc2ncnc(N(C)c3ccccc3)c12 | 97 |
| Cc1ccc(CNC(=O)CCc2nc(N3CC(C)CC(C)C3)c3c(C)noc3n2)o1 (stereo not drawn) | 101 |

Source: PubChem BioAssay (ICCB-Longwood Screening Facility, Harvard Medical School)

Only part of the results is shown. The share of hits here may be higher or lower than overall.
